UCH37 DUB inh: inhibitors of human UCH37 deubiquitinase, primary screen, biochemical, Ub-AMC cleavage, fluorescence; Ubiquitin carboxyl-terminal hydrolase isozyme L5 (Homo sapiens), Q9Y5K5; purified proteasome/UCH37; inhibition, % (concentration not given with the values); 330,000 tested, 0.33% active;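 active means mean of two replicates above 20%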;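 further: 0% = compound-free wells with enzyme and 100% = wells lacking proteasome; stock transfer was 100 nL into about 20 µL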
Target sequence (Q9Y5K5 whole entry, looked up): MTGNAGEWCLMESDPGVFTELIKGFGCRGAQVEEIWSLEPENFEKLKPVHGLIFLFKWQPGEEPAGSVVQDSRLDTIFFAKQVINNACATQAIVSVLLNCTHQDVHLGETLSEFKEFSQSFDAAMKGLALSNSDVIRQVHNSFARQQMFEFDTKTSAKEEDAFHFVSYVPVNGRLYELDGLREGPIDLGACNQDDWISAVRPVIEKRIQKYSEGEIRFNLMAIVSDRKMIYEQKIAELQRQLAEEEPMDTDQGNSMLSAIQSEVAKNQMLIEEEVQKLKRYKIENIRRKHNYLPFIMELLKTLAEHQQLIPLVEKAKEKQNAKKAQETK
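Test system – human UCH37 enzyme supplied as purified proteasome complex · Incubation – 30 min preincubation with enzyme, 25 min cleavage at room temperature · Detection – AMC fluorescence from Ub-AMC cleavage, excitation 355 nm, emission 460 nm · Benchmarks – no-proteasome wells (full inhibition) and compound-free wells (no inhibition)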
E coli growth: E. coli growth inhibition, primary screen, OD600. Escherichia coli growth, 23 h; hits give low values. OD600 absorbance (concentration not given with the values). 330,000 tested, 0.21% active;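 active means OD600 absorbance below the run mean of sample wells minus 3.6 SD, in any replicate, cut at about 0.56 in these data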;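 further: stock transfer was 300 nL into about 60 µL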
HNF4A DNA FP: change in binding of human HNF4A to DNA, primary screen, biochemical, fluorescence polarization, FITC-DNA. AID 1224865, 2016. 1 h. activity change, % at 10 µM. 360,000 tested, 0.3% active. Hepatocyte nuclear factor 4-alpha (Homo sapiens), P41235; in the data active means activity change above about 30%, passing the limit was not always enough;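 further: controls were the assay level and a saturating level of protein; the project sought stronger binding though the title names inhibitors; some compounds called inactive have numbers as strong as hits; positive values seem to mean higher polarization but the record does not say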
Target sequence (P41235 whole entry, looked up): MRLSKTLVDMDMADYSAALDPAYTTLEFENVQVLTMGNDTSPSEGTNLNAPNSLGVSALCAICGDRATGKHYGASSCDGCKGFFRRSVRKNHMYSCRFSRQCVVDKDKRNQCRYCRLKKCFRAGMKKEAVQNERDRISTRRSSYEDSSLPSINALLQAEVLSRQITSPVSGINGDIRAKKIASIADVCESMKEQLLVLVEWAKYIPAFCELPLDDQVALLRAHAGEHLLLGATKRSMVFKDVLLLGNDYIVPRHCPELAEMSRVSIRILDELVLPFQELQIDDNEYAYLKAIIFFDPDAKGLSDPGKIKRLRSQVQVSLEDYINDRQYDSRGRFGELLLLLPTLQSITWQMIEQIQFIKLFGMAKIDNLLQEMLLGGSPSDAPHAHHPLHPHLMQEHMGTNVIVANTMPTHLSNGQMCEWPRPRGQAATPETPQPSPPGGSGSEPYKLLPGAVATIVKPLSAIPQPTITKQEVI
AF4-AF9 inh: inhibitors of AF4 peptide binding to AF9, primary screen, biochemical, AlphaScreen, biotin-AF4 peptide, FLAG-AF9, single point; Protein AF-9 (Homo sapiens), P42568; inhibition, % at 10 µM; 350,000 tested, 0.47% active; AID 651704, 2012;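 active means every replicate reaching a set inhibition limit, whatever the replicate mean, cut at about 25% in these data; inconclusive means mean inhibition reaches that limit but some replicates miss it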;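 further: 0% = plate neutral control median and 100% = total signal loss; the record names both 10 and 1 µM as test concentration; the first replicate is given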
Vif A3G: inhibitors of Vif binding to APOBEC3G peptide, primary screen, biochemical, TR-FRET, GST-Vif 1-94, biotin-A3G peptide, dose response retest (AID 1117319); Virion infectivity factor (Human immunodeficiency virus type 1 group M subtype B (isolate …; inhibition, %, or IC50 in µM where a hit was titrated; 260,000 tested, 0.57% active; TR-FRET GST-Vif / biotin-A3G peptide binding; higher % means a stronger effect; test concentration not given here; strong numbers were not always called active;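 active means above the screen mean plus three standard deviations and confirmed in dose response; inconclusive means results disagree or hit not tested in dose response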;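 further: Vif residues 1-94 fused to GST binding biotinylated APOBEC3G peptide 110-148; 0% = full assay without inhibitor and 100% = GST in place of GST-Vif; retest series ran down from 100 µM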
RanGTP-Impb inh: inhibitors of RanGTP-importin-beta interaction, primary screen, biochemical, FRET, CFP-Ran, YFP-importin-beta, homogeneous | cell-free CFP-Ran/YFP-importin-beta FRET ratio | inhibition, % (test concentration not listed) | 300,000 tested, 1.1% active | AID 2216, 2009;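 active means most replicates above 15%; inconclusive means exactly half above 15%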;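 further: 0% = DMSO wells and 100% = Ran loaded with GDP instead of GTP; wells of about 40 µL received 100 nL stock; the first replicate is given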
FGF22 binding: binders of human FGF22 protein, primary screen, FGF22 synaptogenesis inhibitor project, biophysical, thermal shift, single point | Fibroblast growth factor 22 (Homo sapiens), Q9HCT0 | recombinant FGF22 thermal shift, SYPRO orange fluorescence; percent of sucrose octasulfate shift, DMSO zero | calls only at 9.99 µM | 340,000 tested, 1.5% active | AID 651658, 2012;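 active means melting point raised past a set limit in the mean and every replicate; inconclusive means no clear call; three in four hits are not shown here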
Target sequence (Q9HCT0 whole entry, looked up): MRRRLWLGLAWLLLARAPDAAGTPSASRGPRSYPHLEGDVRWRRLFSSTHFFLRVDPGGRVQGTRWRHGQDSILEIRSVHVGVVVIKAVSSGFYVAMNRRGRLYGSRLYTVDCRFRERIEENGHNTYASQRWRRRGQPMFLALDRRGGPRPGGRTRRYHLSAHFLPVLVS
An asterisk follows results filed as active; i = inactive; ? = inconclusive; / = no result given. An excerpt; rates above refer to the full screens.

SMILES | UCH37 DUB inh | E coli growth | HNF4A DNA FP | AF4-AF9 inh | Vif A3G | RanGTP-Impb inh | FGF22 binding
CN(CC(=O)Nc1cccc(F)c1)C(=O)CN1c2cccc3cccc(c23)S1(=O)=O | -46 | 0.72 | -7.0 | 1.5 | 9% | / | i
O=C(CC1(O)C(=O)N(Cc2ccccc2Cl)c2ccccc21)c1ccco1 (stereo unspecified) | 2.3 | 0.71 | 0.2 | / | -2% | -1.4 | /
CCOc1ccc(NC(=O)COc2ccc(-n3cnnn3)cc2)cc1 | -1.8 | 0.7 | 3.1 | 1.0 | 27% | / | i
Cc1ccccc1C(=O)O/N=C(\N)Cc1cccs1 | 2.8 | 0.69 | 0.8 | -4.5 | / | -1.6 | i
CCN(CC)c1ccc(NC(=S)NC(=O)C2CCC2)cc1 | 5.4 | 0.73 | -1.3 | 26* | / | -0.1 | i
COc1cc(O)c(C(C)=O)c2c1C=CC(C)(C)O2 | / | / | 4.0 | -5.7 | / | / | i
Cc1cccc2cc(C#N)c(SCC(=O)NCC3CCCO3)nc12 (stereo unspecified) | -2.6 | 0.75 | 3.8 | / | -148% | 2.9 | /
CCCCn1c(SCC(=O)Nc2nnc(CC)s2)nc2c1c(=O)n(C)c(=O)n2C | 3.0 | 0.71 | 2.2 | / | 5% | 5.3 | /
O=C(COc1ccc2c(c1)OCO2)Nc1nncs1 | 4.4 | 0.7 | -0.2 | 0.4 | / | 4.4 | i
CCCCn1c(NCCO)nc2ccccc21 | 1.6 | 0.72 | 6.3 | -4.1 | 22% | -2.2 | i
CN1CCN(c2oc(-c3cccs3)nc2S(=O)(=O)c2ccccc2)CC1 | 2.0 | 0.68 | -2.1 | / | 27% | 6.1 | /
Cc1cc(C)c(C(=O)c2ccc(C(=O)N3CCCCC3)cc2)c(C)c1 | -0.4 | 0.68 | 8.0 | -3.3 | -4% | 4.1 | i
Nc1c(C(=O)OCC(=O)Nc2cccc([N+](=O)[O-])c2)[nH]c(=O)[nH]c1=O | -2.3 | 0.69 | -11 | / | 5% | / | /
CCOC(=O)c1c(CN2CCOCC2)oc2ccc(OC(C)=O)cc12 | 2.7 | 0.66 | -0.7 | 0.9 | / | ? | i
Cc1ccc(C(=O)OCc2cc3ccccc3[nH]c2=O)cc1 | -3.8 | 0.65 | 0.7 | / | -11% | -2.4 | /
O=C(COC(=O)c1cccc(O)c1)Nc1ccc(OC(F)F)cc1 | -0.6 | 0.65 | 1.0 | 2.2 | -4% | -6.0 | /
COc1ccc(OC)c(NC(=O)c2cc(S(=O)(=O)N(C)C)ccc2N2CCCC2)c1 | 5.7 | 0.69 | -3.8 | -1.6 | 4% | 3.3 | i
C=CCc1ccc(OCC(O)CN2CCCCC2)c(OC)c1 (stereo unspecified) | 0.5 | 0.72 | 50* | / | -3% | 1.2 | /
C[N+](C)(C)CCCNC(=O)c1ccc(/C=N/O)nc1 | / | / | -1.7 | 0.4 | 16% | 5.1 | i
CN(C)N1C(=O)/C(=C/c2ccco2)SC1=Nc1ccccc1 | 5.8 | 0.68 | 0.6 | / | / | 3.8 | i

Whole records, looked up by structure. Order of values: UCH37 DUB inh | E coli growth | HNF4A DNA FP | AF4-AF9 inh | Vif A3G | RanGTP-Impb inh | FGF22 binding
Cc1cccc2cc(C#N)c(SCC(=O)NCC3CCCO3)nc12 (stereo unspecified) is listed as -2.6 | 0.75 | 3.8 | / | -148% | 2.9 | /
O=C(CC1(O)C(=O)N(Cc2ccccc2Cl)c2ccccc21)c1ccco1 (stereo unspecified) is listed as 2.3 | 0.71 | 0.2 | / | -2% | -1.4 | /
CN(CC(=O)Nc1cccc(F)c1)C(=O)CN1c2cccc3cccc(c23)S1(=O)=O is listed as -46 | 0.72 | -7.0 | 1.5 | 9% | / | i
Cc1ccccc1C(=O)O/N=C(\N)Cc1cccs1 is listed as 2.8 | 0.69 | 0.8 | -4.5 | / | -1.6 | i

Additional compounds
SMILES | UCH37 DUB inh | E coli growth | HNF4A DNA FP | AF4-AF9 inh | Vif A3G | RanGTP-Impb inh | FGF22 binding
COc1ccc(NC(=O)c2cccnc2SC)cc1S(=O)(=O)N1CCCCC1 | 4.6 | 0.7 | 2.5 | 2.3 | / | -2.3 | i
CC(Oc1ccc(F)cc1)C(=O)Nc1ccccc1C(=O)N1CCCCC1 (stereo unspecified) | -2.3 | 0.72 | 4.2 | -1.3 | -8% | / | i
O=c1nc2ccccc2c2n1CC(CN1CCN(C(c3ccccc3)c3ccccc3)CC1)N2 (stereo unspecified) | -2.3 | 0.66 | -3.1 | 13 | -2% | -5.3 | i
Cc1ccc2c(c1)nnn2C1CCN(CC(=O)Nc2ccccc2N2CCOCC2)CC1 | 0.7 | 0.68 | -0.9 | / | -2% | 4.3 | /
COc1ccc(-c2ccc(CN3C(C(C)C)C(=O)N(Cc4cn(Cc5ccco5)nn4)CCS3(=O)=O)cc2)cc1 (stereo unspecified) | / | / | 6.2 | 4.2 | / | / | i
CCCC[n+]1ccn(-c2nc3ccccc3nc2[N-]S(=O)(=O)c2ccc(C)cc2)c1 | -79 | 0.66 | 4.7 | -0.4 | 1% | 12 | i
CN(C)/C=C1\Cc2ccccc2C1=O | -3.3 | 0.64 | 1.1 | -8.3 | -3% | -5.0 | i
C=C(C)CC1N(c2cccc(OC)c2)C(=O)[C@@H]2C(C(=O)O)[C@H]3C=C[C@@]12O3 (stereo partly specified) | 1.9 | 0.7 | 1.2 | / | 27% | 0.6 | /
COc1cccc(C(=O)OCC(=O)NCCC2=CCCCC2)c1 | 2.7 | 0.68 | -1.3 | -3.4 | 0% | / | i
O=C(Cn1cc[n+](CC(=O)c2ccc(Cl)cc2Cl)c1)c1ccc(Cl)cc1Cl | 6.6 | 0.6 | 2.4 | 8.8 | / | 2.7 | i
CCOC(=O)c1sc(=NC(=O)/C=C/c2cccs2)n(C)c1C | -111 | 0.68 | 0.0 | 1.9 | / | -0.5 | i
CCOCCCN1CC(C(=O)NCCc2ccc(C)cc2)CC1=O (stereo unspecified) | -2.7 | 0.74 | -0.7 | / | -3% | -0.5 | /
CCOC(=O)CSC1=C(C#N)C(c2ccccc2OC)CC(=O)N1 (stereo unspecified) | 8.3 | 0.72 | 1.5 | -1.8 | 21% | 0.8 | i
Cc1ccc(NC(=O)c2ccc(NS(=O)(=O)/C=C/c3ccccc3)cc2)nc1 | 0.4 | 0.66 | -1.6 | -12 | / | -1.2 | i
CCOc1cccnc1Sc1ccccc1 | 0.2 | 0.65 | 0.8 | / | / | -1.3 | i
OCC1OC(n2nnc3ccccc32)C(O)C(O)C1O (stereo unspecified) | -1.0 | 0.72 | 2.4 | / | -2% | 0.0 | /
CCOc1ccc(C(=O)Nc2ccccc2N2CCN(C(=O)c3ccccc3)CC2)cc1[N+](=O)[O-] | 3.6 | 0.7 | 0.3 | 1.2 | / | 5.1 | i
Cc1cc(NC(=O)c2c(Cl)c(C)nn2C)no1 | 2.5 | 0.74 | -0.1 | / | -1% | 4.2 | /
CCC(C)NC(=O)Cn1c(=O)n(-c2ccc(OC)cc2)c(=O)c2ccc(C(=O)NCc3ccc(C)cc3)cc21 (stereo unspecified) | -8.7 | 0.69 | 6.9 | 0.1 | -8% | 1.0 | /
S=C(NCc1ccc(Cl)cc1)Nc1ccncc1 | 6.1 | 0.52* | -2.6 | -24 | / | 0.5 | i
O=C(CNC(=O)c1cccs1)Nc1ncccc1O | 5.2 | 0.67 | 7.5 | 10 | 1% | -1.8 | i
O=[N+]([O-])c1ccc(Cl)c(/C=N/n2c(C3CCCCC3)n[nH]c2=S)c1 | / | / | -1.4 | / | 6% | -2.2 | /
C=CC[C@@H](CC(=O)N[C@H](CO)Cc1ccccc1)C(=O)N[C@H](C)COC(=O)[C@@H](CC=C)Cc1ccc(F)cc1 | 2.7 | / | 2.5 | -19 | / | / | i
COc1ccccc1NS(=O)(=O)c1cc(NC(=O)c2[nH]c(C)c(C(C)=O)c2C)ccc1N1CCOCC1 | -1.3 | 0.69 | -8.4 | 5.0 | 19% | 5.6 | i
CCN1CCN(CC(=O)N/N=C/c2ccc(F)cc2F)CC1 | / | / | 2.1 | / | 13% | -5.0 | /
O=C(COC(=O)c1ccc([N+](=O)[O-])o1)Nc1cccc(S(=O)(=O)N2CCCCC2)c1 | 3.2 | 0.63 | 3.5 | 1.9 | 25% | 1.5 | i
CCOP(=O)(OCC)C(Nc1ccc(C)cc1)c1ccco1 (stereo unspecified) | 0.2 | 0.66 | 2.4 | 0.1 | 1% | 0.0 | i
Cc1ccc(/C=N/NC(=O)c2csc(C)c2)o1 | / | / | 0.1 | / | 4% | -3.1 | /
Cc1oc(-c2ccccc2Cl)nc1CSc1nc2c(c(=O)[nH]1)CCCC2 | 3.0 | 0.7 | 0.5 | 1.3 | / | 1.9 | i
COCCOC(=O)c1[nH]c2c(c1C)C(=O)CC(c1ccc(OC)c(OC)c1)C2 (stereo unspecified) | 1.6 | 0.69 | 0.3 | 1.6 | -12% | -0.2 | i
CC(NC(=S)NCc1ccc(F)cc1)C12CC3CC(CC(C3)C1)C2 (stereo unspecified) | 1.1 | 0.71 | 1.4 | -0.7 | 20% | -3.1 | i
O=C(NCCNC(=O)c1cc(Cl)ccc1Cl)c1ccco1 | 0.4 | 0.7 | -2.1 | -0.4 | / | 0.1 | i
COc1cc(CNC(=O)c2cc(-c3ccc(F)cc3OC)n[nH]2)cc(OC)c1 | / | / | -0.8 | -0.3 | / | / | i
CC(C)N1CCC(N2CCN(CCCn3cccn3)CC2CCO)CC1 (stereo unspecified) | 1.4 | 0.65 | -2.7 | -9.8 | / | 0.6 | i
CC(C)[C@H](NC(=O)NCc1ccc(F)cc1)C(=O)O | 5.2 | 0.67 | 0.3 | -5.8 | -5% | 4.6 | i
Cc1ccc(SCc2c(-c3ccccc3)nn(C)c2Cl)cc1 | 0.7 | 0.71 | -4.9 | / | -2% | 0.4 | /
Cc1ccc(C(=O)/C=C/c2ccc(Br)cc2)o1 | 2.5 | 0.72 | -3.2 | / | 7% | 1.4 | /
O=c1nc(N2CCCCC2)nc2n1CCO2 | 0.5 | 0.8 | 2.3 | / | 3% | 2.3 | /
COc1ccccc1CCNC(C)CCc1ccc(O)cc1 (stereo unspecified) | -1.8 | 0.72 | -3.1 | 0.4 | / | ? | i
O=C(Nc1ncn[nH]1)c1ccc(Cl)cc1Cl | -0.1 | 0.63 | 15 | 1.3 | -2% | 1.5 | i
CCc1ccc(S(=O)(=O)NCc2csc(C)n2)cc1 | 3.7 | 0.68 | -3.9 | -1.7 | -2% | 3.8 | i
COC(=O)c1ccccc1NC(=O)Cn1nc2n(C)c3ccccc3n2c(=O)c1=O | -10.0 | 0.7 | / | / | -7% | 1.5 | /
CC(C)C(=O)Nc1ccc(NC(=S)NC(=O)c2ccc([N+](=O)[O-])cc2)cc1 | -3.9 | 0.7 | 3.4 | / | ? | -2.7 | /
O=C(NNc1c(Cl)cccc1Cl)c1c(F)cccc1Cl | 4.3 | 0.72 | 3.2 | -1.7 | -11% | ? | i
COC(=O)c1ccc(-c2ccc(/C=N/NC(=O)CC3(C)OCCCO3)o2)cc1 | / | / | -0.2 | 0.3 | / | 0.0 | i
C/C(=N\NC(=O)c1cccnc1)c1nnn(-c2nonc2N)c1C | / | / | 3.7 | 0.2 | 4% | ? | /

Screening data deposited in PubChem by several laboratories.
